Arbovirus anti: antivirals against arbovirus infection, primary screen, cell-based, full library, 10K replicate subset; arbovirus infection cell-based antiviral screen; inhibition, % at 10 µM; hit rate 0.37% among 200,000; AID 1251, 2008;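 active = inhibition from about 30%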;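 note: bluetongue infection of BSR cells; cell survival read as ATP light after 72 h; 0% = infected wells without compound and 100% = uninfected wells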
Mtb H37Rv: M. tuberculosis H37Rv growth inhibitors, H37Rv strain (AID 1626); M. tuberculosis H37Rv growth inhibition; higher % means a stronger effect; inhibition, % at 10 µM; hits with a dose series show IC50 in µM; hit rate 0.95% among 220,000;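 active = confirmed in a dose series; inconclusive = inhibition above 80% but not taken into the dose series; inactive = below 80% or under 30% at every dose of the series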;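 note: bacteria incubated seven days before Alamar blue readout; 0% = bacteria only wells and 100% = bacteria with antibiotic wells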
YopH inh: YopH tyrosine phosphatase inhibitors, primary screen, biochemical, fluorescence Ex485/Em525 | inhibition, %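 (about 10 µM by stock and volumes)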 | YopH tyrosine phosphatase [Yersinia enterocolitica] | hit rate 0.16% among 140,000;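 active = inhibition of 50% or more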;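 note: controls were vehicle for no effect and minimum signal wells for full effect; inactives centre near -20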
Mtb bLac sens: beta-lactam sensitization of Mtb H37Rv, H37Rv; M. tuberculosis H37Rv growth with meropenem, percent inhibition; hits of this screen are not shown here; inhibition, % at 25 µM; hit rate 0.27% among 330,000;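 active = about 74% or more and at least 40 points above the plate without the antibiotic, then above 30% in a dose series; inconclusive = first-round hits that could not be retested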;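 note: growth measured after seven days incubation then overnight dye step; 0% = bacteria only wells and 100% = bacteria with antibiotic; twin plates without the antibiotic show which effects depend on it; some results filed as inactive read as strong as hits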
RecA splice inh: Mtb RecA intein splicing inhibitors, primary screen, biochemical, fluorescence, HTS; cell-free RecA intein splicing; hit rate 0.75% among 290,000; AID 2221, 2009; Protein RecA (Mycobacterium tuberculosis (strain ATCC 25618 / H37Rv)), P9WHJ3; inhibition, %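 (about 9 µM by stock and volumes)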; in the data active = inhibition above about 30%; inconclusive = no clear call, values can overlap the other calls;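 note: 0% = vehicle wells and 100% = reference inhibitor control wells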
Target sequence (P9WHJ3 whole entry, looked up, canonical isoform): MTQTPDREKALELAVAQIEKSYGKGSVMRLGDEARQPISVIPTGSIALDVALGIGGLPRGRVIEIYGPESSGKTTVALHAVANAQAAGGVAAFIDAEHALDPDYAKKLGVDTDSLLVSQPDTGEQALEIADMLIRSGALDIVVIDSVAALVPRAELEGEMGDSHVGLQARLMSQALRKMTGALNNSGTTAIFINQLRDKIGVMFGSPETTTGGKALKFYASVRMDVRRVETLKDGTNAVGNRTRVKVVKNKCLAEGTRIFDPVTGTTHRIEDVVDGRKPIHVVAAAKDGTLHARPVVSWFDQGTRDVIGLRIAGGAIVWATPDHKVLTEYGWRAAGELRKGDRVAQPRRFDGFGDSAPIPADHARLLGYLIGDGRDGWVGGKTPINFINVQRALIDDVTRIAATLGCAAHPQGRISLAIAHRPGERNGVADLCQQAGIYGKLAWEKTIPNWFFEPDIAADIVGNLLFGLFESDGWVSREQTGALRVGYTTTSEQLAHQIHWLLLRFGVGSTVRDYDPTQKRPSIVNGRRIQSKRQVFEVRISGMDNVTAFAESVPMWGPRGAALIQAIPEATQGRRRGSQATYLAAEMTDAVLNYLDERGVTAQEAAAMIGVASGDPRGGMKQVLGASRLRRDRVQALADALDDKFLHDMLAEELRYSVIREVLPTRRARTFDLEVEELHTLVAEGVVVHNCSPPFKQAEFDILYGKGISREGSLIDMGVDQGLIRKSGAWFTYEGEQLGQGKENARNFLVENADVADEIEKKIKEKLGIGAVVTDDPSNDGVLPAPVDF
Arbovirus anti repeat: also measured in Arbovirus anti; calls as there; inhibition, %; measured here: 10K subset replicate screen; many hits read low in the repeat;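 first of two repeat runs on a subset; 0% = infected and 100% = uninfected wells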
An asterisk follows results filed as active; ? = inconclusive; . = not tested or not shown. An excerpt. The share of hits here may be higher or lower than overall.

SMILES	Arbovirus anti	Mtb H37Rv	YopH inh	Mtb bLac sens	RecA splice inh	others
CC(C)(C)c1csc(NC(=O)Cc2ccc(S(=O)(=O)N3CCOCC3)s2)n1	.	.	.	0	3.7
COc1ccc(-c2nc3c4ccccc4ccn3c2CN2CCCCC2)cc1	7	6%	.	20	6.9
CC(=O)Nc1sc2c(c1C(c1cccc(F)c1)N1CCN(CCO)CC1)CCCC2 (configuration not stated)	-4	0%	.	2	1.2
COc1ccc(NC(=O)OCCn2c([N+](=O)[O-])cnc2C)cc1	-6	4%	-55	5	0.9
Cc1cc(C)nc(NS(=O)(=O)c2ccc(NC(=O)c3cccc(N4C(=O)CCC4=O)c3)cc2)n1	2	2%	-31	5	1.9
CC(C)(C)NCCOCCOc1ccc(Cl)cc1C(C)(C)C	-13	2%	.	1	-1.0
COc1ccc(NS(=O)(=O)c2ccc(S(=O)(=O)N(C)C)cc2)cc1S(N)(=O)=O	4	6%	.	-3	-0.2
COc1ccc2cc(CN(CCc3ccccc3)Cc3nnnn3CC3CCCO3)c(=O)[nH]c2c1 (configuration not stated)	-7	-3%	-51	11	-4.6
COC(=O)c1cc(-c2cccs2)[nH]n1	-2	-6%	.	6	-2.2
CN(CCCC(=O)NC1CC(C)(C)NC(C)(C)C1)S(=O)(=O)c1ccc([N+](=O)[O-])cc1	4	1%	.	-5	-0.4
COc1ccc2c(c1)C(=NNc1ccc(C(=O)O)cc1)c1cc(OC)ccc1-2	.	.	.	98	-2.0
COC(=O)c1sccc1NC(=O)c1ccnn1C	.	.	.	-11	2.2
Cc1cccc(C(=O)Nc2nsc(N)n2)c1	.	.	.	-1	-1.3
CCCCOC(=O)C1=C(C)NC(=O)NC1c1cccc([N+](=O)[O-])c1 (configuration not stated)	.	.	.	-20	6.9
N#CCCn1cc(C(=O)N2CCOCC2)c(-c2ccc3c(c2)OCCO3)n1	4	-4%	.	-9	-0.4
CCCCn1c(=O)nc2n(-c3ccc(OC)cc3)c3ccccc3cc-2c1=O	-5	1%	.	0	-2.3
Cc1cccc(N2CC(C(=O)Nc3nnc(SCc4ccccn4)s3)CC2=O)c1 (configuration not stated)	.	.	.	-1	1.1
CCOC(=O)/C(N=Nc1cc(C(=O)O)cc(C(=O)O)c1)=C(\O)CCl	3	-9%	-12	-4	0.0
COc1ccc(CN2C(=NC(=O)COc3ccccc3)SC3CS(=O)(=O)CC32)cc1 (configuration not stated)	.	.	.	-1	2.8
COc1ccc(Nc2nc(N3CCCCC3)nc3ccccc23)c(OC)c1	-25	-5%	5	91	93*
COc1ccc(C)cc1NC(=S)NNC(=O)c1c(Br)cnn1C	5	4%	.	4	5.9
COc1ccc(C)cc1-n1nnnc1SCn1nnc2ccccc2c1=O	4	-7%	-47	-12	4.3
COC(=O)Cc1nnc(SCC(=O)Nc2ccccc2)c2ccccc12	.	.	.	?	2.3
COc1ccc(N2CCN(C(=S)NCCc3ccccc3)CC2)cc1	.	1%	-39	-5	3.3
COc1ccccc1OCC(=O)NCCSCc1cccc(Cl)c1	-3	3%	-20	-1	5.1
CCOC(=O)C1(C(=O)O)NC(=O)CC1c1ccccc1 (configuration not stated)	3	-5%	-144	2	-1.6
Cc1ccc2cc(CN(Cc3cccs3)C(=O)c3ccco3)c3nnnn3c2c1C	6	1%	-19	-1	1.7
Cc1ccc(CN2CCCN(Cc3ccc(C)cc3)S2(=O)=O)cc1	.	.	.	4	11
Cc1ccc(NC(=O)c2cc(N3C(=O)C4CCCCC4C3=O)ccc2N2CCOCC2)cc1 (configuration not stated)	3	4%	.	7	-1.3
O=C(Cc1cn2ccsc2n1)OCc1nc2ccccc2s1	-5	-16%	-15	-2	5.2
COc1ccc(-c2cccc(C3CC=CC4C3C(=O)N(Cc3ccccc3)C4c3ccc(C(F)(F)F)cc3)c2)cc1 (configuration not stated)	.	21%	.	-5	4.8
N/C(=N\OC(=O)N1CCOCC1)c1ccccc1	-24	1%	-1	4	2.9
COc1cccc(-c2cnc(OC(C)(C)C)nc2OC(C)(C)C)c1	-18	.	-11	10	3.2
CC(C)(C)c1cc(NC(=O)CCSc2nnc3ccccn23)cc(C(C)(C)C)c1	4	0%	-24	?	.
COc1cccc(CNC(=O)c2nnn(-c3ccc(OC(F)(F)F)cc3)c2N)c1	4	0%	-11	4	1.2
COc1ccc(N2CCN(C(=O)c3ccc(C)c(NC(=O)c4ccco4)c3)CC2)cc1	.	.	.	-7	-2.6
COC(=O)C(C(=O)NCC1CCCO1)C1CCCCCC1 (configuration not stated)	2	-5%	-15	28	1.1
CC(=O)Nc1ccc(S(=O)(=O)N2CCc3cc4c(cc3C2C)OCCCO4)cc1 (configuration not stated)	.	.	.	2	2.9
CC1CCCC(C)N1C(=O)CSCc1ccc(Cl)cc1 (configuration not stated)	5	-1%	-10	-17	7.1
COc1ccc(-c2nn(-c3ccccc3)cc2CNC(=O)c2cccc([N+](=O)[O-])c2)cc1	6	6%	-16	3	-1.7

Ordered by length of the SMILES (lowest first): five of the compounds above.
SMILES	Arbovirus anti	Mtb H37Rv	YopH inh	Mtb bLac sens	RecA splice inh	others
CC1CCCC(C)N1C(=O)CSCc1ccc(Cl)cc1 (configuration not stated)	5	-1%	-10	-17	7.1
COC(=O)Cc1nnc(SCC(=O)Nc2ccccc2)c2ccccc12	.	.	.	?	2.3
Cc1ccc2cc(CN(Cc3cccs3)C(=O)c3ccco3)c3nnnn3c2c1C	6	1%	-19	-1	1.7
COc1cccc(CNC(=O)c2nnn(-c3ccc(OC(F)(F)F)cc3)c2N)c1	4	0%	-11	4	1.2
COc1ccc2cc(CN(CCc3ccccc3)Cc3nnnn3CC3CCCO3)c(=O)[nH]c2c1 (configuration not stated)	-7	-3%	-51	11	-4.6

(next part)
SMILES	Arbovirus anti	Mtb H37Rv	YopH inh	Mtb bLac sens	RecA splice inh	others
Cc1cc(NC(=O)Nc2ccc(Cl)cc2)n(C)n1	.	.	.	-8	-5.1
CS(=O)(=O)N(CC(=O)NCCSCc1ccco1)c1ccc2c(c1)OCO2	-3	4%	.	-9	-3.1
N=c1c2c(-c3ccccc3)c(-c3ccccc3)oc2ncn1CCCN1CCOCC1	-32	4%	-10	6	1.5
CC(=O)Nc1ccc(C23CC4CC(CC(C4)C2)C3)cc1	.	.	.	12	3.8
COCCn1c(=O)[nH]c2cc(C(=O)N3CCN(c4ccccc4)CC3)ccc2c1=O	.	.	.	6	1.1
NS(=O)(=O)c1ccc(NC(=O)c2ccc3c(c2)CCCC3)cc1	.	.	.	3	-1.1
O=c1c(CN2CCN(Cc3ccccc3F)C(CCO)C2)coc2ccccc12 (configuration not stated)	.	.	.	-1	2.4
CC(C)C(=O)Nc1c(-c2cccc(Cl)c2)c(=O)c2ccccc2n1C	.	.	.	-4	-2.2
COc1ccc(C2CCCN2C(=S)Nc2cccc(C)c2)cc1OC (configuration not stated)	8	-2%	.	-2	-0.6
Cc1ccccc1-c1nnc(SCc2ccccc2F)o1	2	-1%	0	12	12
O=C(Nc1nn[nH]n1)c1cc(-c2ccc(Cl)c(Cl)c2Cl)nc2ccccc12	4	-5%	.	-5	-0.9
Cc1cc(C(=O)OCC(=O)NC(C)(C)C)c2ccccc2n1	2	-11%	-3	6	-2.4
Clc1ccc(N=C2SCC3CCCCN23)cc1 (configuration not stated)	.	.	.	5	4.6
CCCOC(=O)c1c(N)sc2c1CCC2	-3	-17%	-25	-3	1.1
COc1cccc(-c2nnc(SCC(=O)N3CC(C)CC(C)C3)o2)c1 (configuration not stated)	9	-1%	2	-2	6.5	Arbovirus anti repeat=5
C/C(=N/NC(=O)Cn1nc2ccccc2n1)c1ccc(F)cc1	5	-7%	-21	-8	-0.6
Cc1ccc(S(=O)(=O)N2CCC(c3nc4c(nnn4Cc4ccccc4)c(=O)[nH]3)CC2)cc1	7	6%	.	-1	2.2
CCCCn1c(O)c(C(CC)=NCCCn2ccnc2)c(=O)[nH]c1=O	.	-6%	.	1	0.1
O=c1[nH]c(/C=C\c2ccc(O)c(Cl)c2)nc(O)c1[N+](=O)[O-]	.	.	.	8	1.6
COc1ccc(-n2nc(C(=O)NCC(=O)N3CCN(Cc4ccccc4)CC3)c3ccccc3c2=O)cc1	.	.	.	2	0.9
CNC(=S)N(Cc1ccco1)Cc1cc2cc(OC)ccc2[nH]c1=O	-1	-3%	.	-3	0.7
COCCn1c(SCC(=O)N2CCCc3ccccc32)nc2c(c1=O)SC(C)C2 (configuration not stated)	-10	11%	-42	-2	0.6
COCCCNC(=O)C1Cc2cc(S(=O)(=O)N3CCCC3)ccc2N1C(C)=O (configuration not stated)	.	.	.	6	-0.9
NNC(=S)NC1CCCCCCCCCCC1	.	1%	.	0	1.8
CCOC(=O)N1CCN(Cc2nc3cc(NC(=O)C(C)C)ccc3n2C)CC1	.	.	.	4	-0.8
Cc1cc(=O)[nH]c(SCC(=O)Nc2cccc3ccccc23)c1C#N	8	-10%	4	2	3.1
N#C/C(=N\Nc1ccc(S(=O)(=O)N2CCCCC2)cc1)C(N)=S	5	-3%	-32	0	2.6
Cc1c(C(=O)Nc2ccc(S(=O)(=O)N3CCOCC3)cc2)cccc1[N+](=O)[O-]	.	.	.	3	1.8
O=S(=O)(Cc1ccccc1)N1CCC(c2nc(-c3cccs3)no2)CC1	-8	3%	-27	-11	2.5
COc1cc(Cl)ccc1NC(=O)COc1ccccc1C(=O)N1CCN(c2ccc(O)cc2)CC1	-25	.	-31	10	-0.4
Cc1cc(Br)c(NC(=O)CN2CC=C(c3ccccc3)CC2)c(Br)c1	14	24%	.	20	13
CC1CC1C(=O)OCC(=O)N(C)c1c(N)n(Cc2ccccc2)c(=O)[nH]c1=O (configuration not stated)	.	.	.	2	-2.4
CN(CC(=O)Nc1c(Cl)cccc1Cl)C(=O)c1cccn1C	.	.	.	-7	-0.2
Cn1c(SCC(=O)N/N=C/c2ccc(O)c(O)c2)nc2ccccc21	.	-7%	.	4	-6.3
Nc1ccc(CN2CCOCC2)cc1	-1	-3%	.	2	-6.1
Fc1ccc(C2=Nn3c(Cc4ccccc4F)nnc3SC2)cc1	4	0%	23	-10	0.9
O=C(NCCCN1CCc2ccccc2C1)Nc1ccc(Br)cc1	-19	-4%	-2	2	3.9
Cc1ccc(S(=O)(=O)c2nnn3c2nc(NCCCN2CCCC2=O)c2ccccc23)cc1C	.	.	.	5	0.5
Cc1ccc(C)c2[nH]c(=O)c(CN(CCN3CCCC3)C(=O)Nc3ccc(F)cc3)cc12	0	-11%	-33	-11	2.0
NC(=O)c1ccc(NC(=O)Cn2c(=O)n(-c3ccccc3)c(=O)c3oc4ccccc4c32)cc1	0	4%	.	-10	-0.9
Cc1noc(C)c1CSCC(=O)N1CCN(c2ccc(F)cc2)CC1	7	4%	-22	?	-2.4
O=C(NC1=NCCS1)c1sc2ccccc2c1Cl	1	?	-27	16	1.4
CN1CCN(S(=O)(=O)c2cccc(C(=O)N(c3ccccn3)C3CCCCC3)c2)CC1	13	5%	-39	-4	-1.4
NC(=O)CC(NC(=O)c1ccccc1)c1ccc(N2CCN(c3ccccc3)CC2)c([N+](=O)[O-])c1 (configuration not stated)	.	.	.	10	-2.4
C=CCN(CC(=O)c1sc(C(=O)OCC)nc1C)c1cccc(Br)c1	.	10%	.	84	11
COC(=O)c1ccc(C(C2C(=O)CC(C)(C)CC2=O)C2C(=O)CC(C)(C)CC2=O)cc1	.	-4%	.	9	-0.4
C/C(CC(=O)NCc1ccco1)=N\NC(=O)Cc1ccccc1	3	3%	-37	-17	-3.6
COc1cc(OC)cc(C(=O)NCCCn2ccnc2)c1	.	.	.	14	4.1
CC(C)CC(=O)O/N=C1\C(=O)N(Cc2ccc(Cl)cc2)c2ccc([N+](=O)[O-])cc21	11	-5%	-23	-1	11
COc1ccc(C(=O)NC(C)c2nc3ccccc3[nH]2)cc1OC (configuration not stated)	0	-5%	17	.	-2.0	Arbovirus anti repeat=-3
O=C(Nc1ccc(F)cc1)C1CCN(S(=O)(=O)c2cccs2)CC1	5	7%	.	-3	0.8
COC(=O)c1sc(N2C(=O)C(O)=C(C(=O)c3ccc(C)o3)C2c2cc(OC)ccc2OC)nc1C (configuration not stated)	.	.	.	-13	-4.4
Cc1cc(C)n(S(=O)(=O)/C=C/c2ccccc2)n1	-1	4%	-13	61	3.5

High-throughput results deposited in PubChem by several laboratories.
